NPYLR7 ag: activates Aedes aegypti NPYLR7 receptor. activation, % at 10 µM. 270,000 compounds, 0.15% hits. HEK293T NPYLR7/Galpha15, GCaMP6s calcium fluorescence; in the data active means activation above about 40%;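 further: 0% = vehicle and 100% = reference agonist at the receptor; some compounds past the cut are filed as inactive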
NPYLR7 ag max-min: further read-out of NPYLR7 ag, marked with its call; activation, %; measured here: Max-Min RFU normalised activation; some inactives read as strong as hits;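 span of the calcium signal over five minutes; 0% = vehicle and 100% = native peptide agonist; compound fluorescence can raise it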
An asterisk follows results filed as active; & = joins results of further samples.

SMILES | NPYLR7 ag | NPYLR7 ag max-min
CCCCc1ccc(N2CCCn3c2nc2c3c(=O)n(CCOC)c(=O)n2C)cc1 | -8 | -8
CCCn1c(=O)c2c(nc3n2CC(C)=NN3CC(=O)OCC)n(C)c1=O | -1 | -3
COC(=O)c1ccc(C(=O)N2CCN(C(c3ccccc3)c3ccc(F)cc3)CC2)cc1 (stereo not drawn) | 3 | 0
CCC(CO)N(Cc1ccc(Cl)cc1Cl)C(=O)Nc1cccc(C#N)c1 (stereo not drawn) | 1 | -2
CC(C)CNC(=O)c1cc(NC(=O)Nc2ccc(Cl)cc2Cl)ccc1N1CCCC1 | 8 | 14
CC(C)(C)c1ccnc2nc(N3CCN(S(=O)(=O)c4ccccc4C#N)CC3)nn12 | 12 | 7
CC(Sc1nnc(SCC(N)=O)s1)C(=O)Nc1ccc(F)cc1 (stereo not drawn) | 20 | 9
Cc1ccccc1C(NC(=O)C1CCN(CCCc2ccccc2)CC1)c1ncccc1C (stereo not drawn) | 45 | 35
CN(C)c1ccc(C(CNC(=O)C(=O)Nc2ccc3c(c2)OCO3)N2CCc3ccccc3C2)cc1 (stereo not drawn) | 11 | 5
O=C(Nc1nc(-c2ccc(F)cc2)cs1)c1cccs1 | -4 | -10
COc1ccc(-c2ccc(OCCNC(=O)C3CCCC3)nn2)cc1 | -4 | -5
CCCCC(=O)Nc1cc([N+](=O)[O-])ccc1OC | 1 | 0
CCC(CC)n1nc(C)cc1NC(=O)Cn1nc(C)c2ccccc2c1=O | 6 | 4
Cc1ccc(SC2CCN(C(=O)CC3COCCN3)CC2)cc1 (stereo not drawn) | 0 | 8
Cc1nnc2sc(SCc3ccc(Cl)c(Cl)c3)nn2c1=O | 6 | 4
Cc1ccccc1CN1CCOC(CCNC(=O)c2cnco2)C1 (stereo not drawn) | 28 | 11
CCOC(=O)C1CCCCN1CC(=O)N1N=C(c2ccc(C)c(C)c2)CC1c1ccc(OC)cc1OC (stereo not drawn) | 14 | 17
COc1ccc(-c2nc3sc(CCNS(=O)(=O)c4ccc(Cl)cc4)c(C)n3n2)cc1 | 4 | 3
CCN(C(=O)NCCCCc1cnn(C)c1)c1ccc(F)cc1 | -9 | 664
O=S(=O)(NCc1ccccc1)NCc1cnn2ccccc12 | 4 | 4
Fc1ccc(-c2cnc(CN3CCN(c4ccccc4)CC3)o2)cc1 | 12 | 11
Cc1ccccc1OCC1CCCN(Cc2cnc(N)nc2)C1 (stereo not drawn) | 4 | 1
CCNC(=O)N1CCC2(CC1)[C@@H](C(=O)OCC)[C@@H](O)C(=O)N2Cc1ccccc1 | 8 | 21
O=C(c1coc(CN(CCc2c[nH]c3ccccc23)Cc2ccccc2Cl)n1)N1CCCC1 | 3 | 14
CCCn1nc(C(=O)O)c2c1CCC(N1Cc3nc(C)n(C)c(=O)c3C1)C2 (stereo not drawn) | 6 | 6
Following part.
SMILES | NPYLR7 ag | NPYLR7 ag max-min
O=C(NCCCN1CCc2ccccc21)C1(S(=O)(=O)c2ccccc2)CCCC1 | 14 | 9
COc1cccc(C(CN2CCN(C(=O)c3cc(C)on3)CC2)OCc2ccc(C#N)cc2)c1 (stereo not drawn) | -1 | 5
Oc1ccccc1C1N=C(c2ccccc2)NC(c2ccccc2)=N1 | -1 | -3
N#Cc1c(NC(=O)CSc2nc3ccccc3s2)sc2c1CCCC2 | 10 | 7
O=C(NCC1CCCN(Cc2ccccn2)C1)c1cccs1 (stereo not drawn) | 20&-6 | 9&-5
C=CS(=O)(=O)CCC(=O)NCNC(=O)CCS(=O)(=O)C=C | -3 | -3
Cc1n[nH]c(C)c1CCCCCOc1ccccc1 | -6 | 13
COc1ccc(CN(Cc2nc(C(=O)N3CCCCC3)co2)C(C)C)cc1 | 1 | 10
CCN(CC)S(=O)(=O)NCc1ccnc(Oc2cc(C)cc(C)c2)c1 | -3 | -4
O=C(CN1C(=O)NC2(CCOc3ccccc32)C1=O)Nc1ccccc1F (stereo not drawn) | 3 | 1
Cc1nnc(SCC(=O)Nc2ccc(OC(F)(F)F)cc2)s1 | -4 | -10
Cc1nc(-c2ccccc2)nc(N2CCN(C(=O)COCc3ccccc3)CC2)c1Cc1ccc([N+](=O)[O-])cc1 | 31 | 27
O=c1c2ccccc2nc(-c2cc(C(F)(F)F)ccc2F)n1C1CCCCC1 | 6 | 4
C=CCNC(=O)N1CCN(C(C(=O)N2CCSCC2)C2CCCC2)CC1 (stereo not drawn) | 9 | 15
Nc1c(Cl)cnn1C1CCN(Cc2ccccc2)C1 (stereo not drawn) | 1 | -2
CC1(C(=O)NS(=O)(=O)c2ccc(Cl)cc2)CCN1C(=O)CC1CC1 (stereo not drawn) | 2 | 1
Cc1cc(C)nc(SC(C)C(=O)N(C)Cc2nc(C)no2)n1 (stereo not drawn) | 1 | 0
O=C(N[C@@H]1CC[C@@H]2C[C@@H]1[C@@H](O)CO2)c1cccc2c1OC(F)(F)O2 | 1 | 8
Cc1ccsc1CN(C(=O)C1CNCCO1)C1CC1 (stereo not drawn) | -7 | -10
CCCCCCCCCCCCNC(=O)c1c(O)c2ccccc2[nH]c1=O | -3 | -10
N[C@@H]1c2ccccc2C2(CCN(C(=O)c3ccc(CO)o3)CC2)[C@H]1O | 8 | 8
O=C(Cc1n[nH]c(=O)c2ccccc12)NCCc1cccc(Cl)c1 | -1 | 10
O=C(Cn1c(=O)c2sccc2n(Cc2cc(=O)n3ccccc3n2)c1=O)NCc1ccco1 | 10 | 2
O=c1[nH]c2c(c(=O)[nH]1)SC1=NCCCN12 | 0 | 0
Cc1ccc2c(c1)c1nc3ccccc3nc1n2C | -12 | -20

One compound at a time (already shown). Screens in order: NPYLR7 ag, NPYLR7 ag max-min
Shown for CCN(CC)S(=O)(=O)NCc1ccnc(Oc2cc(C)cc(C)c2)c1 = -3, -4
Shown for CN(C)c1ccc(C(CNC(=O)C(=O)Nc2ccc3c(c2)OCO3)N2CCc3ccccc3C2)cc1 (stereo not drawn) = 11, 5
Shown for O=C(Nc1nc(-c2ccc(F)cc2)cs1)c1cccs1 = -4, -10
Shown for CCCCc1ccc(N2CCCn3c2nc2c3c(=O)n(CCOC)c(=O)n2C)cc1 = -8, -8
Shown for Cc1nc(-c2ccccc2)nc(N2CCN(C(=O)COCc3ccccc3)CC2)c1Cc1ccc([N+](=O)[O-])cc1 = 31, 27

The list continues.
SMILES | NPYLR7 ag | NPYLR7 ag max-min
COc1ccc(-c2ccc(N)nc2)c2ccc(C)nc12 | 1 | 10
CCOC(=O)N1CCN(c2c(NCCN(C)C)c(=O)c2=O)CC1 | 2 | 1
CCC(N)c1ccc(C)cc1C (stereo not drawn) | -11 | -19
Cc1ccccc1CCC1CCCN(C(=O)c2cc(-c3ccc(O)cc3)n[nH]2)C1 (stereo not drawn) | 8 | 7
Cc1csc(=N)n1-c1ccc(Cl)cc1 | 3 | 1
CCC(C)N(Cc1cccnc1)C(=O)c1ccc(OC)o1 (stereo not drawn) | -1 | -5
CC(C)(C)c1ccc(C(=O)NNc2cc(N3CCOCC3)nc(N3CCOCC3)n2)cc1 | -9 | -12
Cc1ccc(S(=O)(=O)NC(=O)C2(C)CCN2C(=O)c2ccc(C3CCCCC3)cc2)cc1 (stereo not drawn) | -1 | -1
CCn1c(=S)sc2c(=O)[nH]c(-c3ccco3)nc21 | 1 | -2
O=C1OC2(CCCCC2)OC(=O)C1=CNc1cccc(F)c1 | 2 | 4
Cc1ccc(NC(=O)COc2coc(CN3CCc4ccccc43)cc2=O)cc1 | 3 | 0
COCCc1noc(-c2cn(Cc3ccc(Cl)cc3)nn2)n1 | 6 | -1
O=C(c1cc(C2CC2)on1)N1CCC2(CCCO2)CC1 | 4 | 0
Cc1sc(NC(=O)C(C)C)c(C(=O)N[C@@H]2C[C@@H](CO)N(C)C2)c1C | -4 | -8
Cc1nc(SCc2cccc(C(=O)NCC3CCCO3)c2)nc(N2CCOCC2)c1C (stereo not drawn) | -2 | 10
O=C1CN(C(=S)Nc2ccc3c(c2)CCC3)CCN1 | -1 | 9
C=CC(C)(O)CN(Cc1c(CC)nn(-c2ccccc2)c1Oc1ccccc1)CC(C)C (stereo not drawn) | -3 | 4
CCc1nc2c(Oc3nc4ccccc4s3)cccn2c1N(C=O)Cc1ccc(OC)cc1 | -2 | -2
CCOC(=O)C1(C)CCN1C(=O)Cc1ccc(OC)cc1 (stereo not drawn) | -3 | -9
Cc1cc(NC(=O)c2cc(-c3cccs3)on2)no1 | 1 | 1
Cc1ccc(Cl)c2sc(=NC(=O)C(C)C)n(C)c12 | 9 | 9
O=C(c1ccccc1O)N1CCOC(c2ccccc2)C1 (stereo not drawn) | 3 | 1
CCNC(C(=O)OCC)c1ccc(Cl)cc1 (stereo not drawn) | 12 | 6
COCCn1c(C)cc(C(=O)Cn2cnc3c2c(=O)n(C)c(=O)n3C)c1C | 9 | 12
c1ccc2c(c1)nc(Nc1ccc3c(c1)OCCO3)c1nncn12 | 9 | 9
(listing goes on)
SMILES | NPYLR7 ag | NPYLR7 ag max-min
COc1cc(C=CC(=O)c2ccc(N3CCCC3=O)cc2)cc(OC)c1 | 6 | 2
O=C(NNC(=O)C1CCCC1)c1ccccc1O | 10 | 4
CCc1ccc(S(=O)(=O)Nc2ccc(-c3ccc(S(=O)(=O)CC)nn3)cc2)s1 | 10 | 5
C=CCN(Cc1csc(COc2ccccc2C(C)C)n1)C(=O)NC(C)(C)C | 27 | 24
O=C(C1CCCC1)N1CCN(Cc2cccc(-c3noc(-c4cccc(C(F)(F)F)c4)n3)c2)CC1 | 3 | 2
CCN(C)S(=O)(=O)Nc1cnn(-c2ccccc2Cl)c1 | -4 | -6
Cc1cc(Oc2cccc(F)c2)nc(SCc2c(F)cccc2F)n1 | 18 | 18
O=C(Cn1ccnc1)NC1CCN(c2ccccc2Br)C1 (stereo not drawn) | -3&-26 | -4&-26
CC(C)CC(=O)Nc1nc2c(s1)CCCC2 | 2 | 7
COC(=O)CCCCCCC(=O)N1CCC(c2cn(C)c3ccc(C)cc23)CC1 | 29 | 24
CCCCC(CC)C(=O)N1CCC[C@@H]1C(=O)NCCNC(=O)c1ccc(OC)cc1 (stereo partly drawn) | 2 | 11
Cc1ccc(F)c(Oc2cc(Cl)ncn2)c1 | 11 | 17
OC(COc1ccc(Cl)cc1)CN(Cc1ccco1)Cc1ccccc1F (stereo not drawn) | 27 | 21
CC(=O)Nc1ccc(SCC(=O)NCC2CCCO2)nn1 (stereo not drawn) | -2 | -1
NC1=NC(c2ccccc2F)n2c(nc3ccccc32)N1 (stereo not drawn) | 6 | 1
Cc1ccc(-c2noc(CSc3nnc(C4CC4)n3C3CC3)n2)cc1 | -1 | 1
CSCCNC(=O)c1sc2cccc(C)c2c1Cl | -6 | 0
CCCn1nc2c(c1C)C(c1cnn(-c3ccc(OC)cc3)c1C)CC(=O)N2 (stereo not drawn) | 4 | -2
COc1ccc(C(C)C)cc1S(=O)(=O)NCc1ccc2c(c1)OCO2 | 4 | 3
O=C(NCc1ccccn1)C1COC2(CCN(C(=O)c3ccccc3Cl)CC2)N1C(=O)c1cccc(F)c1 (stereo not drawn) | 2 | 16
COc1cccc2c1OC1(C)CC2C(S(=O)(=O)c2ccc(C(C)(C)C)cc2)C(=O)N1 (stereo not drawn) | 8 | 10
CN1C(=O)N(C)C2(O)c3ccccc3C(=O)C12O (stereo not drawn) | 4 | -1
Cc1nc(SCc2coc(-c3cccc(F)c3)n2)n[nH]1 | 8 | 5
CC(C(=O)Nc1ccc(Cl)cn1)N(C)CC(=O)Nc1c(Cl)cccc1Cl (stereo not drawn) | -5 | -13
O=C1OC23CCC(CC2)N(C(=O)NC2CCCCC2)C3CN1Cc1ccccc1 (stereo not drawn) | 23 | 26

As entered above:
NPYLR7 ag result of O=C(NNC(=O)C1CCCC1)c1ccccc1O reads 10
NPYLR7 ag result of C=CCN(Cc1csc(COc2ccccc2C(C)C)n1)C(=O)NC(C)(C)C reads 27
NPYLR7 ag max-min result of CCN(C)S(=O)(=O)Nc1cnn(-c2ccccc2Cl)c1 reads -6
NPYLR7 ag result of Cc1ccc(F)c(Oc2cc(Cl)ncn2)c1 reads 11

An excerpt from above in order of molar mass, highest first:
SMILES | NPYLR7 ag | NPYLR7 ag max-min
COc1cccc(C(CN2CCN(C(=O)c3cc(C)on3)CC2)OCc2ccc(C#N)cc2)c1 (stereo not drawn) | -1 | 5
O=S(=O)(NCc1ccccc1)NCc1cnn2ccccc12 | 4 | 4
Cc1ccc(Cl)c2sc(=NC(=O)C(C)C)n(C)c12 | 9 | 9

Continued.
SMILES | NPYLR7 ag | NPYLR7 ag max-min
O=C(NCC1CCCO1)C(C1CCCC1)N1CCN(C(=O)COCc2ccccc2)CC1 (stereo not drawn) | -7 | -2
COCCOc1nc(-c2ccccc2F)n(-c2ccc(NC(=O)c3ccco3)cc2)n1 | 15 | 21
Brc1csc(CNCCc2ccco2)c1 | 3 | 3
CCOC(=CNc1ccc2nsnc2c1)OCC | 6 | 4
COCCN1C(=O)N(CCCc2cccnc2)C(=O)C12CCN(CC(C)C)CC2 | 21 | 10
Cc1ccc(-c2noc(CCN(Cc3ccco3)CC(O)Cc3ccccc3)n2)cc1Cl (stereo not drawn) | 0 | 1
CC(C)c1nccn1C(C)C(=O)N(C)Cc1cc(-c2ccccn2)no1 (stereo not drawn) | 8 | -1
COc1ccc(C(=O)NCC2Cc3cc(F)ccc3O2)cc1OC (stereo not drawn) | 9 | 8
O=C(CCS(=O)(=O)c1ccccc1)N(Cc1ccccc1)c1nc2c(F)cccc2s1 | -1 | -5
CN(C)C(=O)c1ccc(OS(=O)(=O)c2ccccc2)cc1 | -1 | 4
O=C(CNC(=O)C1c2ccccc2Oc2ccccc21)NCc1ccco1 | 2 | -3
CCOCCCN1CCC(NC(=O)NCc2ccccc2)C(C)C1 (stereo not drawn) | 0 | -1
COc1cccc(-c2nc(OCC(C)C)nn2-c2cccc(NC(=O)Nc3cccc(Cl)c3)c2)c1 | 10 | 15

Screening results deposited in PubChem by Fisher Drug Discovery Resource Center.

The list is partial; count on the stated rates, not on these rows.
